S aureus helic: S. aureus DNA helicase inhibition; actives 0.05% (n = 120,000); purified S. aureus helicase, fluorescence unwinding assay; about half of the hits fall short of the stated cut; AID 485395; inhibition, %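 (tested at about 80 µM)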;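 active means both duplicates at 50% or more, or one of them with a favoured structure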;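 further: 0% = mean of negative control wells and 100% = mean of positive control wells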
MgrA DNA FP: alters Staphylococcus aureus MgrA binding to DNA; fluorescence polarization; inhibition, %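 (about 10 µg/mL by stock and volumes)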; actives 0.13% (n = 84,000);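 active means above 50% in either of two replicates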;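 further: 0% = protein plus DNA without compound and 100% = DNA alone without protein; higher means less MgrA bound to DNA so lower polarization; one replicate is shown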
* marks the source's active call; other numbers are inactive results; / = no result given. Some of the compounds tested, so the mix of outcomes need not match the whole.

SMILES	S aureus helic	MgrA DNA FP
COC(=O)c1ccc(OCC#N)cc1	-7	-2.1
CCc1cc(C(=O)Nc2sccc2C(N)=O)cs1	8	2.6
CC1(C)SCNC1C(=O)O (centres undefined)	/	-2.4
O=C(Nc1ccc(-c2cn3ccsc3n2)cc1)c1ccccc1	-8	/
COc1ccc(CN(C(=O)c2cccc(Cl)c2)C2CCS(=O)(=O)C2)cc1OC (centres undefined)	6	-0.4
COC(=O)c1ccccc1NC(=O)/C=C/c1ccc(-c2ccccc2)o1	-2	/
CN(C)c1ccc(CNC(=O)c2ccc(CN(Cc3ccccc3)C(=O)Nc3ccccc3)o2)cc1	1	/
CC1CCN(C(=O)CN(C)S(=O)(=O)c2cccc3nsnc23)CC1	-12	0.8
Cc1cc(N=C(N)N=C(N)N)ccc1Br	/	-2.2
COc1ccc(C(=O)OCc2ccccc2C(F)(F)F)c(O)c1	-6	/
Cc1nnc(SCCn2c(N3CC(C)CC(C)C3)nc3c2c(=O)n(C)c(=O)n3C)s1 (centres undefined)	10	-1.5
Cc1oc(C(C)(C)C)cc1C(=O)NCc1csc2ccc(Cl)cc12	/	4.3
CN(C)CCN(C(=O)C1CCCCC1)c1nc2ccc(Br)cc2s1	8	-3.9
CC(C)c1cccc(C(C)C)c1OC(=O)NC(=O)c1c(F)cccc1F	/	5.7
O=C(CSCc1ccc(F)cc1)N1CCN(c2ccccc2)CC1	9	/

Shown in CSV form: 5 of the compounds above.
SMILES,S aureus helic,MgrA DNA FP
CC1(C)SCNC1C(=O)O (centres undefined),/,-2.4
O=C(Nc1ccc(-c2cn3ccsc3n2)cc1)c1ccccc1,-8,/
COc1ccc(CN(C(=O)c2cccc(Cl)c2)C2CCS(=O)(=O)C2)cc1OC (centres undefined),6,-0.4
COC(=O)c1ccccc1NC(=O)/C=C/c1ccc(-c2ccccc2)o1,-2,/
CN(C)c1ccc(CNC(=O)c2ccc(CN(Cc3ccccc3)C(=O)Nc3ccccc3)o2)cc1,1,/

The listing continues:
SMILES	S aureus helic	MgrA DNA FP
NS(=O)(=O)c1ccc(NC(=O)c2cn(-c3ccccc3)nc2-c2cccs2)cc1	-7	/
Cc1cc(C)c2c(n1)SCC(=O)N2CC(=O)NCCCN1CCOCC1	16	/
O=C1/C(=C/c2cccc(O)c2)SC(=S)N1c1ccccc1O	-18	/
O=C(c1cc2ccccc2o1)N(C1CC1)C1(C(=O)Nc2ccccc2)CCCC1	-9	/
Cc1ccc(OC(=O)c2cc3ccccc3o2)cc1	5	0.7
CNC(=O)c1nc(-c2ccccc2)no1	3	1.1
C=CCNC(=O)CSc1ccc(F)cc1	/	-0.8
O=C1CCCC(=O)C1C1c2ccccc2Oc2ccc(F)cc21 (centres undefined)	10	1.0
CC(C)(C)C1=CC(CO)CC(CO)C1 (centres undefined)	8	1.0
COc1cc(Cl)c(C)cc1NC(=S)N(Cc1ccc(C)cc1)Cc1ccco1	10	0.8
COc1cc2c(cc1/C=C1/NC(=O)N(Cc3ccccc3)C1=O)OCO2	-15	/
CN(C)CCN(Cc1ccccc1)Cc1ccsc1	4	-4.0
O=C(NCc1ccccc1)NC1(C(=O)N2CCCC2)CCCCC1	20	-2.2
COc1ccc(CNC2CC(C)(C)NC(C)(C)C2)cc1	0	-1.7
CCN1CCN(c2cc(C)c3cc(NC(=O)CC4CCCCC4)ccc3n2)CC1	14	-2.9

Grouped by structure: those above containing nitrogen in an aromatic ring.
SMILES	S aureus helic	MgrA DNA FP
O=C(Nc1ccc(-c2cn3ccsc3n2)cc1)c1ccccc1	-8	/
CC1CCN(C(=O)CN(C)S(=O)(=O)c2cccc3nsnc23)CC1	-12	0.8
Cc1nnc(SCCn2c(N3CC(C)CC(C)C3)nc3c2c(=O)n(C)c(=O)n3C)s1 (centres undefined)	10	-1.5
CN(C)CCN(C(=O)C1CCCCC1)c1nc2ccc(Br)cc2s1	8	-3.9
NS(=O)(=O)c1ccc(NC(=O)c2cn(-c3ccccc3)nc2-c2cccs2)cc1	-7	/
Cc1cc(C)c2c(n1)SCC(=O)N2CC(=O)NCCCN1CCOCC1	16	/
CNC(=O)c1nc(-c2ccccc2)no1	3	1.1
CCN1CCN(c2cc(C)c3cc(NC(=O)CC4CCCCC4)ccc3n2)CC1	14	-2.9

(list continues)
SMILES	S aureus helic	MgrA DNA FP
Cc1cccn2c(=O)c(/C=C3\SC(=S)N(C)C3=O)c(N3CCCC3)nc12	-40	1.2
CCC1COC(c2cccn2Cc2ccccc2Cl)=N1 (centres undefined)	9	-3.2
O=C(COC(=O)C1CCC1)c1ccccc1	1	-1.8
CC(=O)Nc1ccc(C)c(C)c1	/	-1.2
COc1ccc(-c2cc(=NCCc3ccccc3)c3cc(C)ccc3o2)cc1	46*	-1.6
Cc1cc(C(=O)CSc2nccn2Cc2ccccc2)c(C)n1-c1ncn[nH]1	-1	/
CC(=O)Nc1cc(C(F)(F)F)ccc1N1CCN(c2ccccc2)CC1	19	1.1
COc1ccc(Cn2c(N)c(S(=O)(=O)c3ccccc3)c3nc(C#N)c(C#N)nc32)cc1	-10	/
O=C(/C=N/O)Nc1cccc(C(F)(F)F)c1	7	-1.0
CCOC(=O)c1c(/N=C/C2C(=O)c3ccccc3C2=O)sc(C)c1C	7	1.5
O=C(NCc1ccco1)c1cccc(N2CCCC2=O)c1	4	-0.9
C/C(N)=C(/C#N)C(=O)CSc1nc2ccccc2n1CC(C)C	23	/
CCCn1cc(C(=O)c2ccc(C)cc2)c(=O)c2ccc(C)nc21	-47	/
CCOC(=O)c1cc2c(C(F)(F)F)cc(=O)[nH]c2o1	-10	0.2
Cc1cc(P(=N)(N2CCOCC2)N2CCOCC2)c(C)n1-c1ccc(I)cc1	-4	/
Cc1nnc(-c2ccccc2)c(=O)n1/N=C/c1ccc2c(c1)OCO2	5	-4.5
Cc1oc2c(c1C(=O)NC(C)(C)C)C(=O)c1ccccc1C2=O	-13	/
N#C/C(=C\c1ccccc1)C(=O)NN1CCOCC1	-16	/
CCOC(=O)c1sc(N)nc1C(F)(F)F	/	7.2
COC(=O)C1=C(C)NC2=C(C(=O)CC(C)(C)C2)C1c1ccccc1Cl (centres undefined)	/	0.0
Cc1nn(-c2ccccc2)c(-n2cccc2)c1C(=O)N1CCCC1	-15	1.5
Cc1ccc(/C(N)=N/O)cc1	0	0.0
CCN1CCCC1CNC(=O)c1cc2c(=O)[nH]c3ccc(C)cc3c2s1 (centres undefined)	9	/
O=C(NCCc1nc(-c2ccccc2)cs1)c1ccccc1	6	-2.5
CC(=O)N1CCc2cc(S(=O)(=O)NC(C)C(=O)O)ccc21 (centres undefined)	18	/
COc1ccc(OCCNS(=O)(=O)c2ccc3c(c2)oc2ccccc23)cc1	5	-3.6
CCCC1Nc2ccccc2S(=O)(=O)N1 (centres undefined)	-1	-0.9
O=C(CC1NCCN(Cc2ccccc2)C1=O)N/N=C/c1cc(Cl)cc(Cl)c1O (centres undefined)	5	/
CCOC(=O)N=Nc1c(O)[nH]c2ccc(F)cc12	/	-1.6
O=C(Cn1c(=O)n(-c2ccc(F)cc2)c(=O)c2oc3ccccc3c21)NCc1ccc2c(c1)OCO2	5	/
OCc1cn(Cc2ccccc2)c2ccccc12	/	0.7
O=C(OCC(=O)N1CCCCC1)c1ccc(Oc2ccccc2)cc1	14	0.0
COC(=O)COc1ccccc1C#N	/	0.4
CS(=O)(=O)N(Cc1ccccc1)c1ccccc1	7	-2.2
Cc1ccc(C2=CC(c3cccs3)n3c(nc4ccccc43)N2)cc1C (centres undefined)	3	/
CC1(C)CC2CC(C)(CN2C(=O)COC(=O)Cn2[nH]c(=O)c3ccccc3c2=O)C1 (centres undefined)	2	/
Cc1noc(C)c1S(=O)(=O)N(C)CC(=O)N1CCc2ccccc21	-13	0.2
N#Cc1cccnc1NNC(=O)CC1(CC(=O)O)CCCC1	3	/
Cc1ccccc1CSCc1ccc(C(=O)NCc2cccs2)o1	-13	1.0
CCOC(=O)CSc1nnc(Cc2ccc(OC)c(OC)c2)o1	14	-2.8
O=C(Nc1cc(C(F)(F)F)cc(C(F)(F)F)c1)c1ccc(F)cc1	/	-0.6
CC1=CS(=O)(=O)CC1SC(=S)N(C)C1CCS(=O)(=O)C1 (centres undefined)	8	0.1
O=C(CC1NC2CCCCC2NC1=O)Nc1ccc2c(c1)OCCO2 (centres undefined)	-14	/
O=C(Cc1cccc2ccccc12)Nc1nnc(-c2ccccc2)s1	18	/
CCOC(=O)c1[nH]c(CSc2nnc(-c3ccncc3)n2CCOC)c(C(=O)OCC)c1C	4	/
CC1(C)CC(=O)C2=C(C1)N(Cc1ccco1)C1=C(C(=O)c3ccccc31)C2c1ccc(F)cc1 (centres undefined)	-5	/
Fc1ccc(-c2cc3ncnc(NCc4cccs4)c3s2)cc1	8	/
O=C1OC(c2ccccc2)=N/C1=C\c1ccco1	/	-0.4
Cc1ccc(S(=O)(=O)c2cc3c(=O)n4ccccc4nc3n(Cc3ccccc3)c2=N)cc1	4	4.7
CCS(=O)c1scc(-c2ccc(Cl)cc2)c1C#N (centres undefined)	/	-1.4
CCn1c(=O)n(-c2ccccc2)c(=O)c2c1c1cc(C)ccc1n2C	1	-2.0
O=C(c1nn2c(c1Cl)NC(c1ccc(F)cc1)CC2C(F)(F)F)N1CCN(Cc2ccccc2)CC1 (centres undefined)	/	0.9
CN1C(=O)C2C=CC1C1C(=O)N(c3ccccc3)C(=O)C21 (centres undefined)	10	-1.9
O=C(NC1CCCC1)C1(S(=O)(=O)c2ccc(Cl)cc2)CC1	5	/
CC(C)(C)C(=O)NC(=S)Nc1cccc(O)c1	10	-0.4
N#Cc1nn(-c2ccccc2)c(=O)n(Cc2ccccc2)c1=O	-19	/
CCC1CCCCN1CCCNc1nc(=S)[nH]c2ccccc12 (centres undefined)	14	-1.6
COC(=O)C(N)Cc1ccc(O)cc1 (centres undefined)	9	/
Clc1ccc(CNc2ccccn2)cc1	0	1.0
O=C(Nc1nccs1)C1COc2ccccc2O1 (centres undefined)	6	/
Continuation:
SMILES	S aureus helic	MgrA DNA FP
Cc1ccc(CC(C#N)Sc2nnc(C3COc4ccccc4O3)n2C)cc1 (centres undefined)	-4	/
CC(C)(C)C(=O)NC1CCN(CC(=O)N2CCCCCC2)CC1	-5	-0.1
COC(=O)CSc1ccc(C#N)c(SCC(=O)OC)c1	10	/
COc1ccc(NC(=O)CSc2nnc(Cc3cccn3C)n2CCc2ccccc2)c(OC)c1	-22	/
O=C(NC1Cc2ccccc2C1)C1CCN(C(=O)OCc2ccccc2)CC1	/	-0.8
O=C(NCc1ccccn1)c1ccc(Cn2cc(Br)cn2)o1	-7	-1.9
O=C1C(=O)N(CCN2CCOCC2)C(c2ccccc2F)/C1=C(\O)c1ccccc1 (centres undefined)	-11	/
COCCN1C(=O)c2ccccc2C(C(=O)NCc2ccccn2)C1c1cn(C)c2ccccc12 (centres undefined)	-1	/
COC(=O)c1ccc(OCC(O)CNCC2CCCO2)c(OC)c1 (centres undefined)	12	/
O=C(/C=C/c1cccs1)N(Cc1ccccn1)c1nc2ccccc2s1	-1	/
O=C1NC2(CCCC2)C(=O)N1Cc1ccc(Br)cc1	-4	/
CC[N+]1=C(C)C(C)(C)c2cc(-c3ccccc3)ccc21	8	0.6
CCn1c(Sc2ncnc3c2sc2nc(C)cc(C)c23)nnc1-c1cccs1	/	-7.8
Cc1ccnc2nc(C(=O)OCC(=O)Nc3ccccc3)nn12	-2	/
NS(=O)(=O)c1ccc(NC(=O)/C=C/c2ccc3c(c2)OCCO3)cc1	-2	/
COc1cccc(/C=C/C(=O)Nc2c(F)c(F)c(F)c(F)c2F)c1OC	-5	/
CC(Sc1nnc(COc2ccccc2)n1-c1ccccc1)C(=O)O (centres undefined)	-5	-0.7
CC(=O)CSc1sc(C(C)=O)c(-c2ccccc2)c1C#N	/	-0.8
Cc1ccc2oc(=O)c3cc(C(=O)NCc4ccco4)sc3c2c1	14	/
CCCNC(=O)Cn1nc(C(F)(F)F)c2c1CCC2	7	3.2
Cc1ccc(OCC2Cn3c(nc4c3c(=O)[nH]c(=O)n4C)O2)cc1C (centres undefined)	0	-2.1
CN(C)c1ccc(/C=N/O)c(F)c1C#N	/	-0.6
O=C(O)/C=C/c1ccco1	11	/
Fc1cc(Br)c(-n2cccc2)c(Br)c1	/	-1.5
O=C(C[n+]1ccc(/C=N/O)cc1)N1CCCCC1	2	3.0
COc1ccc2[nH]c(=O)c(CN(Cc3ccc(C)cc3)C(C)=O)cc2c1	-5	3.8
CCC(C)C(=O)Nc1ccc(-c2nnc(-c3ccccc3)o2)cc1 (centres undefined)	9	2.2
COc1ccc(CCn2c(=O)c(C#N)cc3c(=O)n4cccc(C)c4nc32)cc1OC	-120	/
NC(=O)COC(=O)/C=C/c1cccc(Br)c1	12	/
Cc1cc(C)nc(SCc2nnc(SCC(=O)N3c4ccccc4Sc4ccc(Cl)cc43)o2)n1	10	-0.2
CCCCn1c(=S)[nH]c2ccccc21	17	/
CN1CC(=O)N(CCCC(=O)O)C1=O	1	/
O=C1c2ccccc2C(=O)N1c1nc(-c2cccs2)cs1	24	4.8
COC(=O)c1ccc(CN2CCOCC2)o1	-4	/
O=C(O)CCCC(=O)N1CCN(c2ccc(F)cc2)CC1	/	-1.4
O=C(CSc1nnc(CNC(=O)c2ccco2)o1)c1ccccc1	7	1.9
CC(N)C12CC3CC(CC(O)(C3)C1)C2 (centres undefined)	19	1.7
CCN(CC)S(=O)(=O)c1ccc2oc(C(=O)NC3CCCC(C)C3C)c(C)c2c1 (centres undefined)	15	/
N#C/C(=C\Nc1cccc(C(F)(F)F)c1)c1ccc(Cl)cc1	/	0.9
Cc1nc2ccc(C(=O)O)cc2nc1C	15	-1.2
CCOc1ccccc1C1CC(=O)NC(C)=C1C(=O)OCC1CCCCC1 (centres undefined)	11	-6.2
c1ccc(Cn2c(SCc3nc4ccccc4s3)nnc2C2CC2)cc1	-21	/
CCc1ccc(NC(=O)C(C)Sc2nnc(-c3ccccc3)o2)cc1 (centres undefined)	-3	/
